From PubChem BioAssay
FEN1 inh: blocks human flap endonuclease 1 | Recombinant FEN1 flap cleavage, fluorescence, 15 min | Potency, µM (series often up to 114 µM), for inactives: at the top dose activity change, negative = inhibition, actives largely listed as inhibitors | 0.35% of 390,000 active; further: nearly all actives have a fitted effect of over 65% in size
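Concentration–response screening of FEN1 (10 nM): 15 min compound preincubation at room temperature, reaction started with 50 nM substrate and read at 0 and 15 min. Corrected, normalized data were fitted by a four-parameter Hill equation.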
KAT2A inh: GCN5L2 (KAT2A) acetyltransferase inhibition; Q92830; GCN5L2 HAT assay, ThioGlo1 CoA-SH fluorescence; AID 504327; 0.21% of 390,000 active; Potency, µM (series often up to 58.9 µM), for the others: at the top dose activity change, negative = inhibition, most hits filed as inhibitors
Target sequence (Q92830 whole entry, looked up): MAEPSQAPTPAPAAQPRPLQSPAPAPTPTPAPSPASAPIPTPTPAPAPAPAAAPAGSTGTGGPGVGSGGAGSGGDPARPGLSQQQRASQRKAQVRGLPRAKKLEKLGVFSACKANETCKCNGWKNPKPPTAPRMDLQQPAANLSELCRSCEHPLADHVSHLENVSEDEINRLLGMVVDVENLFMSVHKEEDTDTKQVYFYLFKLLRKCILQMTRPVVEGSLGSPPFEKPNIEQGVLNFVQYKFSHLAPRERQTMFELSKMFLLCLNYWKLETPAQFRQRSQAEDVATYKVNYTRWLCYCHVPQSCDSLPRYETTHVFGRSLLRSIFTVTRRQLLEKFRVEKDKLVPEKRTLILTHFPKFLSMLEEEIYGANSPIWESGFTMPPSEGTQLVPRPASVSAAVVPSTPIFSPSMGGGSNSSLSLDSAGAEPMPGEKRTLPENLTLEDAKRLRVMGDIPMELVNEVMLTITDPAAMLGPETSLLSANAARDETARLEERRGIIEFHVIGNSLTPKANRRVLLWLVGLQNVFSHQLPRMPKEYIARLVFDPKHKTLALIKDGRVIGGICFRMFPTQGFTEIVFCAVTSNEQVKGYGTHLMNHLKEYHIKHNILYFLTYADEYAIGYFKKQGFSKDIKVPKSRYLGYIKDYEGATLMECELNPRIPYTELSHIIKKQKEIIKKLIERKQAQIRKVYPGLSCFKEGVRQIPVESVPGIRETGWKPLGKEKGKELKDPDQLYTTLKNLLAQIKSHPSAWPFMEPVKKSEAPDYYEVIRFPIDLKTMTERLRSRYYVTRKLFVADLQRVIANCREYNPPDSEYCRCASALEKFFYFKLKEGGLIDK
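Fluorescence readout, Ex340nm/Em540nm: ThioGlo1 (50uM final) reacts with free CoA thiol released as 20nM GCN5L2 acetylates H3(1-25) peptide (75uM) using acetyl-CoA (70uM). Compound and enzyme sat 15 min beforehand; 20 min room-temperature reaction.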
Active calls of the source: *; ? = inconclusive; · = no result given; & = joins results of further samples; [ ] = remark or other dose. The call rests on the fitted dose curve; in most records, active means well fitted curve in the direction sought with a large enough effect; inconclusive means small, poorly fitted or top-dose-only effect, or another doubt; inactive means no such curve, though single readings can be large; an effect the other way counts as inactive or inconclusive. On the % scale 0 is the no-effect control and ±100 the full control effect; potency means the concentration at half of the fitted maximal effect.

| compound | FEN1 inh | KAT2A inh |
| --- | --- | --- |
| CC(C)=CCN1CCN(Cc2ccc3nsnc3c2)CC1CCO (stereo not drawn) | 6% | -16% |
| CCOC(=O)N1CCN(S(=O)(=O)c2ccc3c(c2)CC(C)N3C(=O)C2CC2)CC1 (stereo not drawn) | -1% | -7% |
| CC(C)CNC(=O)COC(=O)c1ccc(F)cc1Cl | 1% | -3% |
| O=C(CSc1nnc(NC(=O)c2ccco2)s1)NCc1ccc2c(c1)OCO2 | -1% | 10% |
| COc1ccccc1NC(=O)c1c(C)oc2c1CCCC2 | 1% | -8% |
| Cc1ccc(NC(=O)c2ccc(-c3nn(C)c(=O)c4ccccc34)cc2)c(C)c1 | -21% | 0% |
| C=CCn1c(CSc2nc3ccccc3s2)nnc1SCC(=O)NCc1ccco1 | -7% | -8% |
| CC(=O)c1cccc(NC(=O)CCCNC(=O)c2ccc(Cl)cc2)c1 | -6% | 2% |
| O=C(NCC1CCCN(Cc2cccc(F)c2)C1)c1cccc2ccccc12 (stereo not drawn) | -18% | 4% |
| COc1ccc(N=C2SC(CC(=O)Nc3ccccc3)C(=O)N2CCN2CCOCC2)cc1 (stereo not drawn) | -9% | -4% |
| CC(NC(=O)C1CCCN1S(=O)(=O)c1ccccc1)c1ccccc1 (stereo not drawn) | 8% | -13% |
| CC/C(=N\NC(=O)c1ccc(N(C)C)cc1)c1ccccc1 | 7% | 1% |
| N#Cc1c(N2CCOCC2)nc(N)c2c(N)nc3c(c12)CC(CCl)O3 (stereo not drawn) | -2% | -2% |
| CC(C)N1CCc2c(sc(NC(=S)NC(=O)c3ccccc3)c2C#N)C1 | -8% | 36%[activator] |
| O=C(Nc1ccccc1OC(F)F)c1ccc(-n2cncn2)c([N+](=O)[O-])c1 | 1% | -12% |
| C#CCSc1nsc(SCC#C)c1C#N | ? | -16% |
| Cc1ccc2c(CC(=O)Nc3cccc(S(=O)(=O)N4CCOCC4)c3)coc2c1 | -12% | -4% |
| CCCCCCCCCOC1OC(CO)C(O)C(O)C1NC(C)=O (stereo not drawn) | 4% | -1% |
| O=C(CP(=O)(c1ccccc1)c1ccccc1)Nc1nc2ccccc2s1 | 1% | -10% |
| Nc1nnc(SCC(=O)NC2CCCC2)s1 | 19% | 0% |
| COc1cc(OC)cc(C(=O)OCC(=O)N2CCCC2)c1 | 9% | -4% |
| Cc1cccc(NC(=O)NCCN2C(=O)C3C4C=CC(C4)C3C2=O)c1 (stereo not drawn) | -1% | -6% |
| CC(NC(=O)Cn1cnnn1)C12CC3CC(CC(C3)C1)C2 (stereo not drawn) | -1% | -2% |
| COC(=O)c1nn(-c2ccccc2)c(=O)cc1Sc1ccc(Cl)cc1 | -10% | -3% |
| CSc1nc2nc(C)c(C/C=C/c3ccccc3)c(=O)n2[nH]1 | -1% | 19% |
| Cc1cccn2c(NC(=O)c3cccs3)c(-c3ccccc3)nc12 | -12% | 11% |
| CCN(CC(=O)Nc1c(F)cccc1F)C(=O)CSc1ccc(F)cc1 | -5% | -14% |
| CC1=NN(C(=O)c2ccccc2Cl)C(O)(c2cccnc2)C1 (stereo not drawn) | 15% | -2% |
| CC(C)c1nc(CNC(=O)CCc2nnc(-c3ccsc3)o2)cs1 | 0% | -7% |
| N#CC1(C#N)CC(C=O)=C(N)C1(C#N)CC(=O)C12CC3CC(CC(C3)C1)C2 (stereo not drawn) | -9% | 19% |
| O=C(O)CCCN1C(=O)C2C3C=CC(C2C1=O)C1C(=O)N(CCCC(=O)O)C(=O)C31 (stereo not drawn) | -2% | -5% |
| O=C(C1CCN(S(=O)(=O)c2cnc[nH]2)CC1)N1CCN(c2ncccn2)CC1 | 5% | -1% |
| CCCCCSc1nnc2c(n1)OC(C)N(C(C)=O)c1ccccc1-2 (stereo not drawn) | 0% | -8% |
| Cc1nc(C)n(CC(O)COc2ccc3ccccc3c2)n1 (stereo not drawn) | 2% | 2% |
| COCCNC(=S)NN=C1CCCCCC1 | -6% | -2% |
| CC(C)(C)C1COc2ccccc2N1C(=O)c1cccc(Cl)c1 (stereo not drawn) | 6% | -3% |
| CN(CC(=O)Nc1ccc(F)cc1)c1ccc(S(=O)(=O)N2CCCCC2)cc1[N+](=O)[O-] | 0% | -8% |
| CCn1c(O)c(N=N)c2ccccc21 | 4% | -19% |
| CCOc1ccc(NC(=O)CN(C)C(=O)CSc2ccccc2)cc1OCC | 9% | -4% |
| O=C(COC(=O)c1cccc(S(=O)(=O)N2CCc3ccccc32)c1)Nc1ccc(Cl)cn1 | 9% | -2% |
| COc1cc(CC(=O)N/N=C/c2ccccc2)c([N+](=O)[O-])cc1OC | · | 4% |
| COc1cccc(C(=O)O/N=C2\CCS(=O)(=O)c3sccc32)c1 | -3% | -4% |
| Cc1ccn2cc(CCNC(=O)c3ccc(Br)o3)nc2c1 | -3% | -1% |
| COc1ccc2c(=O)c3c(=O)n(CCc4ccccc4)c(C(C)C)nc3oc2c1 | 1% | -1% |
| COC(=O)COc1cc(OCC(=O)OC)c2c(-c3ccccc3)cc(=O)oc2c1 | 0% | 0% |
| O=C1NC(=NCc2ccccc2)S/C1=C/c1ccc(O)cc1 | -21% | -19% |
| CCc1nnc(NC(=O)c2ccc(NS(=O)(=O)c3ccccc3)cc2)s1 | 15%&-8% | -19% |
| COc1ccc(NC(=O)Cc2nnc(SCC(=O)Nc3nccs3)n2C)cc1 | -1% | 1% |
| CCn1cc(C(=O)NCC2COc3ccccc3O2)c2cc(OC)c(OC)cc2c1=O (stereo not drawn) | 4% | -1% |
| O=c1cnc2cnc(Oc3cccc(Cl)c3)nc2n1C[C@H]1CCCO1 | · | -9% |
| COc1ccc2[nH]c3nc(SCC(=O)NC4CC4)nnc3c2c1 | -2% | -3% |
| CCn1c(SCc2ccc(F)cc2)nc2c(c1=O)SCC2 | -8% | -4% |
| COc1ccc2[nH]cc(CCNc3ncncc3-c3cccc(C#N)c3)c2c1 | · | -12% |
| O=C(Cc1ccc(Cl)cc1)Nc1ccc(N2CCN(C(=O)c3ccco3)CC2)cc1 | 0% | -9% |
| CC(C)/C=C/CN1CCN(CCCc2ccccc2)C(CCO)C1 (stereo not drawn) | 0% | -3% |
| CCN(C(=O)CSc1nnc(-c2ccccc2Br)o1)C1CCS(=O)(=O)C1 (stereo not drawn) | -2% | -5% |
| CCC(C(=O)OC(C)C(=O)Nc1ccc(Cl)cn1)c1ccccc1 (stereo not drawn) | -14% | -6% |
| C/C(=N\NC(=O)CSc1nc2ccccc2s1)c1cccnc1 | -11% | -23% |
| CCOC(=O)C1(Cc2ccccc2C)CCCN(C(=O)c2cc(CC)nn2C)C1 (stereo not drawn) | -5% | ? |
| Cc1cc(C(=O)OCC(=O)Nc2cccc(S(=O)(=O)N(C)C)c2)c2ccccc2n1 | 1% | -14% |

New compounds follow
| compound | FEN1 inh | KAT2A inh |
| --- | --- | --- |
| O=C(CN1CCN(c2ccccn2)CC1)Nc1cccc(C(F)(F)F)c1 | -8% | -9% |
| c1ccc(CSc2ccc3nnc(-c4cccnc4)n3n2)cc1 | 2% | 0% |
| CCOc1ccc(NC(=O)NCc2ccc3c(c2)OCO3)cc1 | 19% | 1% |
| CCC(=O)Nc1ccc(C(=O)NNC(=O)c2cccc(C)c2)cc1 | 18% | -3% |
| CCN(CC)c1ccc(-n2c(C)c(C(C)=O)c(C(C)=O)c2C)cc1 | -19% | -8% |
| O=C(O)CCSc1nnc(-c2ccccc2)n1-c1ccccc1 | -12% | -1% |
| COc1ccc(NS(=O)(=O)c2cc(NC(=O)c3nc4nc(C)cc(C)n4n3)ccc2C)cc1 | -2% | -7% |
| CCC(=O)NC(=S)Nc1ccccc1F | 5% | -10% |
| CC1(C)S/C(=N/N=C/c2ccco2)NC1=O | -1% | -6% |
| CC1CCC(CN2CCN=C2N(C)C)CC1 (stereo not drawn) | 13% | -9% |
| CCC(Oc1cc(Cl)ccc1Cl)C(=O)NN1C(=O)C2C3CCC(C3=C(C)C)C2C1=O (stereo not drawn) | 1% | 1% |
| N#CC1=C(N)Oc2n[nH]c(-c3cccs3)c2C1C1C=CCCC1 (stereo not drawn) | -9% | -18% |

Profiles, looked up by structure.
COc1cc(CC(=O)N/N=C/c2ccccc2)c([N+](=O)[O-])cc1OC is listed as FEN1 inh: ·; KAT2A inh: 4%
N#CC1(C#N)CC(C=O)=C(N)C1(C#N)CC(=O)C12CC3CC(CC(C3)C1)C2 (stereo not drawn) is listed as FEN1 inh: -9%; KAT2A inh: 19%
Cc1cc(C(=O)OCC(=O)Nc2cccc(S(=O)(=O)N(C)C)c2)c2ccccc2n1 is listed as FEN1 inh: 1%; KAT2A inh: -14%

Next section:
| compound | FEN1 inh | KAT2A inh |
| --- | --- | --- |
| O=C1CC(Nc2ccc(N3CCOCC3)cc2)C(=O)N1c1ccccc1 (stereo not drawn) | -5% | 0% |
| CCCc1nn2c(=O)cc(CSCC(=O)Nc3ccc(C)cc3)nc2s1 | -2% | -6% |
| COC(=O)N1CC(C)N(C(=O)OC)CC1C (stereo not drawn) | 9% | 2% |
| Nc1ccc(S(=O)(=O)Nc2nc(-c3ccccc3)cc(-c3ccccc3)n2)cc1 | 0% | 3% |
| CCOC(=O)C1CCCN(Cc2cccc(Oc3ccccc3)c2)C1 (stereo not drawn) | 0% | -11% |
| O=C(CC1NCCN(Cc2ccccc2)C1=O)Nc1ccccc1 (stereo not drawn) | -1% | -3% |
| CSc1ccccc1NC(=O)c1cc(Cl)sc1Cl | 2% | 1% |
| Cc1ccc(C)c(OCCC(=O)OCC(=O)c2c(N)n(C)c(=O)n(C)c2=O)c1 | -16% | 1% |
| Cc1cc(C)n(C(=O)c2ccc(C)o2)n1 | -9% | -13% |
| Cc1ccnc(NC(c2cccnc2)c2ccc3cccnc3c2O)c1 (stereo not drawn) | 0% | 17% |
| COc1cc(SC)ccc1C(=O)NC1CCCCC1 | 5% | -17% |
| CCOC(=O)c1nnn(-c2nonc2-c2ccccc2)c1C | 0% | 0% |
| O=C(CCC1N=C2c3ccccc3N=C(SCC(=O)NCc3ccco3)N2C1=O)NCc1ccco1 (stereo not drawn) | 0% | -9% |
| CS(=O)(=O)N(CC(=O)N1CCCC1)c1cc(Cl)ccc1Cl | 19% | -1% |
| Cc1cc(Cl)ccc1OCCn1cncn1 | 19% | -6% |
| CC(NC(=O)c1cccnc1)C(c1cccs1)N1CCOCC1 (stereo not drawn) | 1% | 1% |
| CN(CCO)c1cc(N(C)CCO)c([N+](=O)[O-])cc1[N+](=O)[O-] | 13% | -11% |
| O=C(CCc1nnc(CCCc2ccccc2)o1)NCC(F)(F)F | 20% | -1% |
| CCC(C)[C@H](NC(=O)[C@@H]1CSC2c3ccccc3C(=O)N21)C(=O)NCc1ccncc1 (stereo partly drawn) | 4% | -14% |
| CCNc1ncc2nc(-c3cccc(C#N)c3)c(=O)n(Cc3cccc(OC)c3)c2n1 | · | -1% |
| O=C(c1ccc(CNc2c(N3CCOCC3)c(=O)c2=O)cc1)N1CC=C(c2ccccc2)CC1 | -2% | -8% |
| COc1cccc(C2(CSc3nnc(-c4cc(OC)c(OC)c(OC)c4)o3)OCCO2)c1 | -6% | -2% |
| COc1ccc(C)cc1NC(=O)NNC(=O)C1CCC(C(C)(C)C)CC1 (stereo not drawn) | 11% | -29% |
| OC(COc1cccc2ccccc12)CN1CCN(c2ccccn2)CC1 (stereo not drawn) | 0% | -8% |

Taken from above:
KAT2A inh result of CCc1nnc(NC(=O)c2ccc(NS(=O)(=O)c3ccccc3)cc2)s1 stands at -19%
KAT2A inh result of CC(C)c1nc(CNC(=O)CCc2nnc(-c3ccsc3)o2)cs1 stands at -7%
FEN1 inh result of N#CC1=C(N)Oc2n[nH]c(-c3cccs3)c2C1C1C=CCCC1 (stereo not drawn) stands at -9%
FEN1 inh result of COc1cc(SC)ccc1C(=O)NC1CCCCC1 stands at 5%
KAT2A inh result of O=C(Cc1ccc(Cl)cc1)Nc1ccc(N2CCN(C(=O)c3ccco3)CC2)cc1 stands at -9%

Two consecutive compounds out of the list so far:
| compound | FEN1 inh | KAT2A inh |
| --- | --- | --- |
| O=C(CCC1N=C2c3ccccc3N=C(SCC(=O)NCc3ccco3)N2C1=O)NCc1ccco1 (stereo not drawn) | 0% | -9% |
| CS(=O)(=O)N(CC(=O)N1CCCC1)c1cc(Cl)ccc1Cl | 19% | -1% |

(further entries)
| compound | FEN1 inh | KAT2A inh |
| --- | --- | --- |
| COc1ccc(-c2n[nH]c(C)c2-c2cc(OC)ccc2O)cc1 | 13% | -7% |
| Cc1c(CCC(=O)N2CCC[C@H]2C(=O)O)c(=O)oc2c(C)c3oc4c(c3cc12)CCCC4 | 0% | ? |
| N#C/C(=C\c1ccc(Br)s1)C(=O)N1CCN(c2ccccc2)CC1 | 0% | -7% |
| CN(CC(=O)Nc1cccc(F)c1)C(=O)CNS(=O)(=O)c1ccc(N(C)C)c([N+](=O)[O-])c1 | -2% | 2% |

A portion of the library; most or all hits stand in other tables.
